# miR-21 reporter: qHTS Assay for Modulators of miRNAs and/orActivators of miR-21; HeLa miR-21 FLuc reporter, luciferase, 48 h; Potency, µM (titrated, usually from 38.3 µM), for the others: at the highest dose reporter change, positive = more light; 340,000 tested, under 10 active; AID 2288, 2010; active = well fitted rising curve with a large enough effect; inconclusive = small, poorly fitted or top-dose-only effect; inactive = no such curve, though single readings can be large or run the other way;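 also: % of control where 0% means no effect; miR-21 action dims this reporter so a rising signal means less miR-21 action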
#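 HeLa cells stably expressing CMV-driven firefly luciferase with a downstream miR-21 binding sequence, endogenously expressing miR-21, were treated with titrations (up to about 40uM final) for 48 hours at 37 degree Celsius. Luciferase luminescence was read after lysis.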
# Rango dissoc inh: qHTS Assay for Inhibitors of RanGTP induced Rango (Ran-regulated importin-beta cargo) - Importin beta complex dissociation; Snurportin-1 (Homo sapiens) + GTP-binding nuclear protein Ran (Homo sapiens) + Importin …; Biochemical FRET Rango-importin beta, RanGTP-induced dissociation; Potency, µM (highest dose often 46.1 µM), inactives show at the highest dose activity change, negative = inhibition; hit rate 0.071% among 340,000; AID 540253, 2011; active means falling FRET ratio curve, often poorly fitted, with flat reads before Ran was added; inconclusive means other falling curves, or compound fluorescence or quenching; inactive means flat or rising ratio curve;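 also: potency is read from the fitted curve at half-maximal effect; % of control where 0% means no effect; nearly all actives have a fitted effect of over 45% in size; -100% = wells without RanGTP and RCC1; the record marks most hits as doubtful in a second field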
#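 Rango FRET biosensor (snurportin-1 IBB flanked by N-terminal EYFP and C-terminal CFP10) at 0.1 uM, with 0.25 uM importin beta in PBS, 1mM DTT, 0.02% Tween-20, 0.1% BSA. 0.6 uM Ran, 2mM GTP and 0.2 uM RCC1 were then added for 45 min at room temperature. Inhibition read as loss of FRET rise.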
# GLA inh pH 4.5: qHTS Assay for Inhibitors of Human alpha-Galactosidase at pH 4.5. Alpha-galactosidase A (Homo sapiens), P06280. purified enzyme, 4-MU-alpha-Gal fluorescence, pH 4.5. activity change, negative = inhibition, % at 105 µM. 230,000 tested, under 10 active. AID 1467, 2008; inconclusive = small, poorly fitted or top-dose-only inhibition, or a rising curve; inactive = flat fitted curve, though single readings scatter; no compound was filed as active;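 also: 0% = full activity with enzyme and -100% = basal without enzyme; dose as in the result columns while the protocol names 77 µM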
# Rango-impB inh: qHTS Assay for Inhibitors of Rango (Ran-regulated importin-beta cargo) - Importin beta complex formation. Rango CFP/YFP FRET sensor + importin beta, 45 min. Potency, µM (top dose mostly 92.2 µM), for inactives: at the highest dose inhibition of complex formation. hit rate 0.031% among 340,000; active = rising FRET ratio curve, often small or poorly fitted; inconclusive = mostly compound fluorescence or quenching in the first reads; inactive = flat curves in all reads;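 also: potency is read from the fitted curve at half-maximal effect; 0% = DMSO wells and 100% = buffer wells lacking importin beta; nearly all actives have a fitted effect of over 15% in size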
# Target sequence (Q14974 whole entry, looked up): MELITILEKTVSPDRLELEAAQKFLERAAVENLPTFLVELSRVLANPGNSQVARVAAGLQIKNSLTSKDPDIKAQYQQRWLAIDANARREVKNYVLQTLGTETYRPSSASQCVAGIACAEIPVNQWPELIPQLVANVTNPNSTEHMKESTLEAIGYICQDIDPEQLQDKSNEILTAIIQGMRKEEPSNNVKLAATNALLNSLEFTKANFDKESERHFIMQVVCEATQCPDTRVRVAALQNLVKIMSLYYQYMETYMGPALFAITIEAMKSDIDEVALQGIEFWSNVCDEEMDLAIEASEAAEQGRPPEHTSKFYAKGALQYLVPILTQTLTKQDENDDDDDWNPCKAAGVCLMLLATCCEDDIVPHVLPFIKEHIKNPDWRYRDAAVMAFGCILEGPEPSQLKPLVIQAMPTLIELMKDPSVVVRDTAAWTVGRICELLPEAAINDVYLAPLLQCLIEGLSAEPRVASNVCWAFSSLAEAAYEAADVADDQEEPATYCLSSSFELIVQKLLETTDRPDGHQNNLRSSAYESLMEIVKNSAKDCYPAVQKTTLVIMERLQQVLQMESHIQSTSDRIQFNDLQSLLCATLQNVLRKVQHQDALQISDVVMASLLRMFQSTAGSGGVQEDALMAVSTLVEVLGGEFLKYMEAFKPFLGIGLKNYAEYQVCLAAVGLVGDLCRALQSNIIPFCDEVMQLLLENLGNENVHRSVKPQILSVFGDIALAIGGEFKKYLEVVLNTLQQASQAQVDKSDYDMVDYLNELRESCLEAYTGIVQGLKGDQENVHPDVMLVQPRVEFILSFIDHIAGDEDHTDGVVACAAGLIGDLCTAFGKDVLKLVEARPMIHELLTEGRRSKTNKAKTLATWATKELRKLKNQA
#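 FRET biosensor (snurportin 1 IBB flanked by EYFP and cerulean), 50 nM, with compound 5 min, then 0.125 microM importin beta in PBS, 1 mM DTT, 0.02% Tween-20, 0.1% BSA. CFP/YFP ratio read after 45 min at room temperature; pre-read flags interference.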
# * hit, by the source's call; ? = inconclusive; · = no result given; & = joins results of further samples; [ ] = remark or other dose.
miR-21 reporter,Rango dissoc inh,GLA inh pH 4.5,Rango-impB inh,molecule
·,24%,·,3.4%,Cc1ccc(Br)c(NS(=O)(=O)c2cccc(C(=O)N3CCNC(=O)C3)c2)c1
-17%,19%,-1,3.3%,O=C(N/N=C/c1cccs1)C(=O)Nc1cccc(Cl)c1
-1%,1%,4,-2.0%,CCOC(=O)C(C)C1(O)c2ccccc2-c2ncccc21 (configuration not stated)
0%,·,4,·,CCOC(=O)N1CCN(CC(=O)c2c[nH]c3ccc(F)cc23)CC1
0%,1%,-2,-3.5%,CC(NC(=O)Cc1ccsc1)c1ccc(S(N)(=O)=O)cc1 (configuration not stated)
-2%,?,2,?,Cc1ccc(N=Cc2c(O)n(-c3ccc4c(c3)OCO4)c(=O)c3ccccc23)cc1
-1%,15%,6,3.3%,C#CCOC(=O)CCCC(=O)NCCCCCCCC
·,0%,·,1.9%,O=C(Nc1ccccc1Br)c1cccc2ccccc12
-3%,9%,·,-3.6%,O=c1[nH]cnc2c1nc(NCc1ccccc1)n2C1O[C@@H](CO)[C@H](O)[C@@H]1O (some centres not stated)
-8%,0%,-3,-2.8%,CCCc1[nH][nH]c(=O)c1C(c1ccc(Cl)cc1)C(C#N)C#N (configuration not stated)
-63%,2%,·,-0.5%,COc1cc2ccccc2cc1C(=O)Nc1ccc(C)cn1
2%,2%,·,2.2%,COc1ccc(N(CC(=O)NCc2ccccc2OC)S(=O)(=O)c2ccccc2)cc1
·,-28%,·,-2.2%,CC1(C)CC(=O)C=C(NC2CCCCC2)C1
·,1%,·,1.1%,CC(Sc1nnnn1-c1ccc(O)cc1)C(=O)NNC(=O)c1ccc(F)cc1 (configuration not stated)
-9%,11%,-10,-1.5%,CCOc1cccc2cc(C(=O)Nc3ccccc3-c3ccccc3)c(=O)oc12
0%,?,·,0.0%&7.4%&-0.1%,C[C@H](CCC(=O)NCC(=O)O)[C@H]1CC[C@H]2[C@@H]3[C@H](O)C[C@@H]4C[C@H](O)CC[C@]4(C)[C@H]3C[C@H](O)[C@]12C
·,-5%,·,-1.6%,Cc1cc2c(cc1C)NC(C)CC(=O)N2 (configuration not stated)
·,1%,·,-0.5%,CC(=O)Oc1c(C)c(C)c2c(c1C)CC[C@@](C)(CCC[C@H](C)CCC[C@H](C)CCCC(C)C)O2
3%,2%,3,0.0%,COc1ccc(S(=O)(=O)NCC2CCCN(C(=O)CNC(C)=O)C2)cc1 (configuration not stated)
7%,3%,·,-1.4%,O=C(CSc1nc2scc(-c3ccccc3)c2c(=O)[nH]1)N1CCOCC1
1%,8%,·,0.8%,CCOC(=O)CSc1nc2c(sc(=S)n2-c2ccc(CC)cc2)c(=O)[nH]1
-2%,-10%,4,-4.1%,Cc1ccc(CC(NC(=O)c2ccccc2)C(=O)NCC(=O)O)cc1 (configuration not stated)
-3%,-11%,·,?,CC(=O)N(C)c1ccc(N=Cc2c(O)ccc3ccccc23)cc1
-2%,-5%,7,0.3%,Cc1cccc(NC(=O)C(=O)NCc2ccc3c(c2)OCO3)c1C
·,7%,·,-1.4%,CCN(C(=O)COC(=O)/C=C/c1ccc(OC(F)F)c(OC)c1)C1CCS(=O)(=O)C1 (configuration not stated)
·,-17%,·,-1.5%,O=C(COC(=O)c1cccnc1Cl)NC1CCCCC1
-1%,8%,-2,3.7%,CCCCCCCCCCSc1n[nH]c(NC(C)=O)n1
12%,-18%,-3,-5.6%,CN(C1CCCCC1)S(=O)(=O)c1ccc(NC(=S)NC(=O)c2cccs2)cc1
-5%,11%,7,1.0%,CCCC(c1nnnn1CC(=O)OCC)N(Cc1cc2ccc(C)cc2[nH]c1=O)C1CCCC1 (configuration not stated)
-8%,-25%,-17,-3.5%,CCN(CC)S(=O)(=O)c1cccc(NC(=O)COc2ccc(C#N)cc2OC)c1

# Arranged by value in miR-21 reporter (ascending): some entries from above.
canonical_smiles | miR-21 reporter | Rango dissoc inh | GLA inh pH 4.5 | Rango-impB inh
CCOc1cccc2cc(C(=O)Nc3ccccc3-c3ccccc3)c(=O)oc12 | -9% | 11% | -10 | -1.5%
CCCC(c1nnnn1CC(=O)OCC)N(Cc1cc2ccc(C)cc2[nH]c1=O)C1CCCC1 (configuration not stated) | -5% | 11% | 7 | 1.0%
CC(=O)N(C)c1ccc(N=Cc2c(O)ccc3ccccc23)cc1 | -3% | -11% | · | ?
Cc1ccc(CC(NC(=O)c2ccccc2)C(=O)NCC(=O)O)cc1 (configuration not stated) | -2% | -10% | 4 | -4.1%
C[C@H](CCC(=O)NCC(=O)O)[C@H]1CC[C@H]2[C@@H]3[C@H](O)C[C@@H]4C[C@H](O)CC[C@]4(C)[C@H]3C[C@H](O)[C@]12C | 0% | ? | · | 0.0%&7.4%&-0.1%
CCOC(=O)CSc1nc2c(sc(=S)n2-c2ccc(CC)cc2)c(=O)[nH]1 | 1% | 8% | · | 0.8%
O=C(CSc1nc2scc(-c3ccccc3)c2c(=O)[nH]1)N1CCOCC1 | 7% | 3% | · | -1.4%

# Later entries:
miR-21 reporter,Rango dissoc inh,GLA inh pH 4.5,Rango-impB inh,molecule
·,-9%,·,-4.2%,Cc1ccc(C)c(S(=O)(=O)N2CCCC2CNC(=O)C(=O)NCCc2ccccc2)c1 (configuration not stated)
-14%,13%,-22,4.8%,CCC(=O)NS(=O)(=O)c1ccc(N=NN2CCCCC2)cc1
·,-26%,·,-3.5%,Cc1sc2ncnc(N3CCC(C(=O)Nc4cc(C(F)(F)F)ccc4OCC(F)(F)F)CC3)c2c1C
-1%,-2%,-10,0.0%,C=CCNc1cnn(-c2ccc(C)cc2)c(=O)c1Sc1ccc(C)cc1
-57%,11%,-4,4.7%,COC(=O)Nc1nnc(-c2ccccc2Cl)s1
-2%,18%,5,1.8%,COC(=O)C1=C(C)N(CC2CCCO2)C(=O)C1 (configuration not stated)
-3%,-7%,-4,0.9%,CN(C)c1nc2c(c(=O)[nH]c(=O)n2C)n1Cc1ccccc1Br
1%,19%,-12[21.1 µM],-2.9%,CCCCNC(=O)CSc1nc2cc3c(cc2c(=O)n1CCC(=O)NCCc1ccc(OC)c(OC)c1)OCO3
·,-17%,·,-5.8%,COc1cccc(N2CCN(CC(=O)Nc3ccccc3C(=O)NCc3ccccc3)CC2)c1
-1%,?,3,?,COCCn1c(=N)c(C(=O)NCc2ccco2)cc2c(=O)n3ccccc3nc21
-41%,-8%,5,-2.5%,COc1ccccc1NC(=O)CCSc1nnc(-c2ccco2)o1
·,-3%,·,-1.4%,Cn1nc(C(=O)Nc2cccc(S(=O)(=O)N3CCCCC3)c2)c2ccccc2c1=O
-3%,12%,5,2.5%,O=C(O)c1cccc(NC(=S)NC(=O)c2ccncc2)c1
0%,-4%,9,0.6%,COc1cccc(-n2c(Cc3cc(=O)[nH]c(=O)[nH]3)nnc2SCC(=O)N2CCCC2)c1
0%,6%,6,0.3%,CCn1cc(CNCc2ccc(OCC(O)CN(C)Cc3ccccc3)cc2)cn1 (configuration not stated)
1%,8%,4,-0.6%,COCCNC(=O)CN(CCc1ccccc1)S(=O)(=O)c1ccc(OC)cc1
-20%,7%,4,-0.3%,O=C(O)CCC(=O)c1ccc2c(c1)OCCO2
-22%,0%,6,-2.7%,COCCCNC(=O)c1ccc(N2CCCC2)c(NS(=O)(=O)c2ccc(C)cc2)c1
-4%,-4%,-5,-4.3%,Cn1nnc2cc(NC(=O)N3CCN(c4ccccn4)CC3)ccc21
-4%,-4%,-4,-1.1%,CC(=O)Nc1sc2c(c1C(=O)N1CCOCC1)CCCCC2
-2%,-1%,4,1.8%,CC(=O)N1N=C(c2cccc(Br)c2)OC12CCCC2
1%,3%,5,1.5%,O=c1n(-c2ccccc2)c(=O)n2n1CCC2
-4%,1%,6,-6.0%,O=C(O)[C@@H]1Cc2ccccc2N1
·,0%,·,-0.9%,O=C(CC1OC(=O)c2ccccc21)NCC1COc2ccccc2O1 (configuration not stated)
1%,-4%,-3,-2.6%,CCn1c(SCC(=O)Nc2oc(-c3ccccc3)c(-c3ccccc3)c2C#N)nnc1-c1cc(OC)cc(OC)c1
-37%,?,0,?,COc1cc(-c2nc3cnccn3c2Nc2ccc(C)cc2)ccc1O
1%,1%,1,3.8%,CN(C)S(=O)(=O)c1cccc(NC(=S)N2CCCCC2CO)c1 (configuration not stated)
4%&-5%,·,-3,·,COc1ccc(C(=O)Nc2ccc3nc(N4CCCCC4)cc(C)c3c2)c(OC)c1
0%,-6%,·,0.5%,CCC(=O)N1CCN(c2nnc(-c3ccccc3)c3ccccc23)CC1
0%,-13%,1,-1.1%,O=C(CN1CCC(NC(=O)c2ccc(Br)cc2)CC1)NCc1cccs1
·,·,·,?,O=C(O)c1cc(O)ccc1O
0%,-9%,·,0.6%,CCOC(=O)C1CCN(S(=O)(=O)c2cn(C)cn2)CC1
1%,3%,1,-5.3%,Cc1ccc(S(=O)(=O)N2C=CC(C(F)(F)F)=NCC2)cc1
2%,7%,-1,-1.6%,O=C(O)c1ccccc1SC1CC(=O)N(c2ccc3c(c2)OCO3)C1=O (configuration not stated)
-1%,-2%,4,-1.0%,CSc1ncccc1C(=O)N1CCCC(C(=O)c2ccc3ccccc3c2)C1 (configuration not stated)
-24%,?,-23,?,O=C(/C=C/c1ccccc1)c1ccc2c(c1)OCO2
·,15%,·,-1.5%,Cc1cc(NC(=O)CSCC(=O)OCC(=O)Nc2ccc(OC(F)F)cc2)no1
-7%,27%,6,-3.1%,O=C(NCCCN1CCOCC1)c1ccc(NC(=O)C2COc3ccccc3O2)cc1 (configuration not stated)
·,-13%,·,0.3%,CCC(C)c1ccccc1NC(=O)C(C)Sc1n[nH]c(N)n1 (configuration not stated)
7%,-4%,4,-4.2%,CCOc1cc(S(=O)(=O)NC2CCCCC2)ccc1F
-1%,1%,3,3.9%,CCn1c(SCC(=O)NC2CCS(=O)(=O)C2)nnc1-c1ccccc1 (configuration not stated)
6%,-3%,·,-0.5%,CC(=O)C1=C(c2ccccc2)NC(=O)NC1c1cccs1 (configuration not stated)
-24%,-3%,-1,-4.0%,COc1ccc(C(=O)NC(=S)Nc2ccc(S(=O)(=O)Nc3cc(C)on3)cc2)cc1OC
17%,-5%,-1,?,COC(=O)C1=C(Nc2ccc(C)cc2)C=C(C)C(C(=O)OC)C1c1ccc(F)cc1 (configuration not stated)
·,1%,·,2.4%,Cc1ccc(NC(=O)CN(C)C(=O)c2cc(C)on2)cc1
0%,-8%,9,?,Cn1cccc1C(=O)NC(=O)COC(=O)CNS(=O)(=O)c1ccc(Br)cc1
-2%,4%,1,-1.5%,O=C(C1CCCN(S(=O)(=O)c2ccccc2[N+](=O)[O-])C1)N1CCN(c2ccccc2)CC1 (configuration not stated)
·,-16%,·,0.3%,CC(C)(C)Oc1ccccc1Nc1nc(NCCO)nc(N2CCCC2)n1
·,-15%,·,0.9%,O=C(COC(=O)c1cccc(F)c1)Nc1ccc2c(c1)OCCO2
10%,8%,·,0.4%,COc1ccc(CNS(=O)(=O)c2cc(-c3cc(C)no3)ccc2C)cc1OC
-19%,-2%,·,1.5%,COc1cc(/C=C/c2ccc3cccc(O)c3n2)cc(Br)c1OC
0%,?,2,?,O=c1c2ccccc2c(/C=N/c2n[nH]c(CCCO)n2)c(O)n1-c1ccccc1Cl
-3%,-3%,-2,-0.3%,CCC1(C)Cc2c(sc3nc(SCC(=O)O)[nH]c(=O)c23)CO1 (configuration not stated)
·,19%,·,-2.0%,CN(c1ccccc1)S(=O)(=O)c1ccc(C(=O)N2CCN(c3ccccc3F)CC2)cc1
·,-18%,·,-1.9%,Cc1sc2ncnc(SCC(=O)Nc3ncccc3O)c2c1C
0%,-8%,-8,-0.1%,CCNS(=O)(=O)c1ccc(CCC(=O)NC2CCCC2)cc1
-1%,-15%,6,?,Nc1ccc2c(c1)OCCOCCOCCOCCOCCO2
1%,1%,9,-0.3%,CCOC(=O)Cn1ccc(-c2ccccc2)c(C#N)c1=O

# Assay outcomes (PubChem)

# Not all compounds are listed (hit frequency here may not be typical).
